Polio RdRp inh – inhibitors of poliovirus RNA polymerase binding and polymerization; P03300; poliovirus polymerase elongation, fluorescence polarization; hits give low values; % elongation, % (compound at 16.7 µg/mL); 150,000 tested, 0.66% active; in the data active = % elongation below about 90%; also: some results filed as inactive read as strong as hits
Target sequence (P03300 1749-2209 limits assumed): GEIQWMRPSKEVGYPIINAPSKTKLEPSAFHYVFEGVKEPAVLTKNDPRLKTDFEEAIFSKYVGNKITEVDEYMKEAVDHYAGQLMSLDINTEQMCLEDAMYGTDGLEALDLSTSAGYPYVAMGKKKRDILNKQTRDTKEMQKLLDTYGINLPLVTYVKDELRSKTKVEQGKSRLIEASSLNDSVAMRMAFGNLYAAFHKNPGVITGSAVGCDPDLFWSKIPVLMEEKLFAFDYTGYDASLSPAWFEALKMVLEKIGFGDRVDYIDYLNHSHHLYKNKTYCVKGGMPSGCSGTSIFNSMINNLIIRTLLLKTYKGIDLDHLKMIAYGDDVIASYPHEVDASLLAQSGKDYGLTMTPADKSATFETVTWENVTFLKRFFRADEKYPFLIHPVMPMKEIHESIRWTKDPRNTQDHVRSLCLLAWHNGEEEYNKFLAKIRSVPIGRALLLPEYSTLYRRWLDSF
Polio RdRp inh intensity – further read-out of Polio RdRp inh, marked with its call; % elongation; measured here: total intensity read-out; formula for this scale not given here;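 total fluorescence in place of polarization; lower means less elongation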
* = called active by the depositor.

SMILES	Polio RdRp inh	Polio RdRp inh intensity
CC(C)Cn1c(=O)c2ccccc2n2c(CCC(=O)N3CCN(c4ccccc4)CC3)nnc12	106	104
CSc1nc2sc3c(c2c(=O)n1-c1ccccc1C)CCCC3	104	111
COc1cc(NS(=O)(=O)c2cc3[nH]c(=O)[nH]c3cc2C)cc(OC)c1OC	101	110
COc1ccc(CNC(=O)c2ccc3c(c2)N(Cc2ccccc2F)C(=O)c2ccccc2S3=O)cc1 (configuration not stated)	108	110
CCOC(=O)c1c(C)[nH]c(CCC(=O)Nc2cc(Cl)ccc2OC)c1C	113	117
Cc1nn(C)c2c1c(-c1ccccc1)cc(=O)n2Cc1ccc(Cl)cc1	104	108
Cc1cccc(OCC(=O)N2CCC(c3nc4ccccc4o3)CC2)c1C	105	109
CCCCOc1ccc(NC(=O)Cn2nnnc2-c2ccccc2F)cc1	106	108
O=C(Nc1nnc(S(=O)(=O)N2CCCCCC2)s1)c1ccc(Cl)cc1	100	102
Cc1ccc(C(=O)NCC(c2ccc3c(c2)OCO3)N2CCN(C)CC2)cc1C (configuration not stated)	104	104
Cc1nn(-c2ccc(N3CCCC3)nn2)c(C)c1CCC(=O)Nc1ccc(F)c(Cl)c1	102	108
CCc1ccc(NC(=O)CCNS(=O)(=O)c2ccc3c(c2)oc(=O)n3C)cc1	104	113
CN(C)CCNC(=O)Cc1ccc(NC(=O)N2CCCCc3ccccc32)cc1	107	106
O=C(c1ccc2c(c1)N(Cc1c(F)cccc1Cl)C(=O)c1ccccc1S2)N1CCCC1	111	113
COc1cc(CNC(=O)CSCc2nc3cccnc3n2C2CCCCC2)cc(OC)c1OC	110	108
Cc1c(C(=O)NCc2ccc(F)cc2)oc2ccc(S(=O)(=O)N3CCCCC3)cc12	106	111
Cc1ccc(CNC(=O)CN2C(=O)CCc3cc(S(=O)(=O)N4CCCCC4)ccc32)cc1	106	112
Cc1nc2ccn(Cc3cccs3)c(=O)c2cc1C(=O)NCc1ccccc1	102	111
Cn1c(=O)c2c(nc(NCCc3ccccc3)n2Cc2ccccc2Br)n(C)c1=O	112	110
Cn1c(=O)c2cc(S(=O)(=O)NC(Cc3ccccc3)C(=O)Nc3ccc(F)cc3)ccc2n(C)c1=O (configuration not stated)	102	107
O=C(C1CCCN(S(=O)(=O)c2ccc(Br)s2)C1)N1CCN(c2ccccc2)CC1 (configuration not stated)	114	114
CCCN1CCCc2cc(CN(CCCN3CCOCC3)C(=O)Nc3ccc(CC)cc3)ccc21	105	103
COc1ccc2[nH]cc(CCNC(=O)Nc3ccccc3C)c2c1	104	106
CCCNC(=O)CCSc1nc(-c2ccc3c(c2)OCO3)cc(C(F)(F)F)n1	104	111
COc1ccc(/C=C/C(=O)Nc2sc3c(c2C(N)=O)CCCC3)cc1	105	111
CC(=O)c1sc(NC(=O)c2c(-c3ccccc3)c(-c3ccccc3)nn(C)c2=O)nc1C	104	111
COc1ccc(Br)cc1CNC(=O)c1ccc2nc(C(C)C)oc2c1	111	115
CCc1ccc2c(c1)c(=O)c(S(=O)(=O)c1ccccc1)cn2CC(=O)Nc1ccc(OC)cc1	108	111
CCOC(=O)Cn1c(=O)n(-c2ccccc2OC)c2nc(-c3ccccc3)nc(C(N)=O)c21	106	103
Cc1ccc(NC(=O)CN2C(=O)COc3ccc(S(=O)(=O)NC4CCCC4)cc32)c(Cl)c1	104	113
Cc1cc(C)cc(-n2c(=O)[nH]c3ccccc3c2=O)c1	110	113
Cc1ccc(NC(=O)[C@H](CSCc2ccccc2)N2Cc3ccccc3C2=O)cc1	107	111
CCC(Oc1ccccc1)C(=O)Nc1cc(-c2ccccc2OC)nn1-c1ccccc1 (configuration not stated)	109	115
Cc1nc2cccnc2n1C1CCN(S(=O)(=O)c2ccc(C(C)C)cc2)CC1	101	95
Cc1nn(C)c2c1c(-c1ccccc1)cc(=O)n2Cc1ccc(F)cc1	101	102
Cc1ccc(-n2c(C)cc(/C=C(\C#N)C(=O)Nc3ccc(C)c(C)c3)c2C)cc1	102	104
CC(=O)N1c2c(cc(Br)cc2S(=O)(=O)N2CCN(c3cc(C)ccc3C)CC2)CC1C (configuration not stated)	108	108
CCOc1ccc(OCC)c(NC(=O)c2cc(S(=O)(=O)N3CCc4ccccc43)cn2C)c1	109	111
Cc1nn(-c2cccc(Cl)c2)c2nc(-c3cccnc3)cc(C(F)(F)F)c12	112	116
CCC(C)NC(=O)c1nn(-c2ccc(C)cc2)c(=O)n(C)c1=O (configuration not stated)	101	111
O=C(NC1CCCC1)c1ccc(CSc2nc3ccncc3n2Cc2ccccc2F)cc1	106	105
CC1CN(C(=O)N2CCC(C(=O)NCc3ccccc3F)CC2)c2cc(Cl)ccc2O1 (configuration not stated)	111	110
Cc1cn2c(=O)cc(COc3ccc(NC(=O)COc4ccccc4)cc3)nc2s1	103	98
COc1ccccc1NC(=O)Cn1c(=O)n(-c2cccc(C)c2)c(=O)c2c1c1cc(C)ccc1n2C	105	103
COc1ccc(/C=C/C(=O)Nc2sc3c(c2C(N)=O)CCC(C)C3)cc1OC (configuration not stated)	104	109
CC(=O)Nc1ccc(S(=O)(=O)N2CCN(c3ccc(C)c(C)c3)CC2)cc1	99	103
COc1cccc(CNC(=O)CCc2c(C)nc3c4c(C)cc(C)nc4nn3c2C)c1	100	105
CCOC(=O)C1CCN(C(=O)Cn2ncc3c4ccccc4n(Cc4ccccc4)c3c2=O)CC1	110	112
Cc1cc(O)c(C(c2ccc(Cl)cc2)N2CCN(c3ccccc3)CC2)c(=O)n1Cc1ccco1 (configuration not stated)	119	113
CCCCN(CC)C(=O)c1nn(-c2ccc(OC)cc2)c(=O)c2c1c1ccccc1n2C	109	111
The listing continues:
SMILES	Polio RdRp inh	Polio RdRp inh intensity
N#Cc1cc2c(=O)n3ccccc3nc2n(-c2nnc(SCc3ccccc3Cl)s2)c1=O	103	128
CC1=C(C(=O)Nc2ccc(C)cc2C)C(c2ccc(O)cc2)n2nnnc2N1 (configuration not stated)	101	104
Cc1ccc(C)c(OCCOCCn2c(-c3ccc(Br)cc3)nc3ccccc3c2=O)c1C	107	109
COc1cccc(N2CC(NC(=O)c3ccco3)CC2=O)c1 (configuration not stated)	102	106
Cc1ccc(-n2cc(-c3ccccc3)nc2S(=O)(=O)CC(=O)Nc2ccc(F)cc2)cc1	109	103
Cc1ccc2oc(C(=O)Nc3ccc(S(=O)(=O)Nc4onc(C)c4C)cc3)cc(=O)c2c1	102	106
Cc1ccc(-c2cc(C(F)(F)F)n3nc(C(=O)NCC45CC6CC(CC(C6)C4)C5)cc3n2)cc1	101	93
Cc1ccc(C(=O)NCCc2csc(-c3cccc(F)c3)n2)cc1C	105	115
CCOc1ccc(CNC(=O)c2ccc(CSc3nc4ccncc4n3Cc3ccc(F)cc3)cc2)cc1	107	110
Cc1cc2oc(C(=O)Nc3ccc(S(=O)(=O)N(C)c4ccccc4)cc3)cc(=O)c2cc1C	109	108
CCOc1ccccc1-n1cc2c(c1-c1ccc(OC)cc1)c(=O)n(C)c(=O)n2C	105	108
Cc1cccc(N2CCN(C(=O)c3cccn3-c3nnc(N4CCCCC4)s3)CC2)c1C	98	108
CC(=O)c1ccc(NC(=O)CSc2nnc(-c3ccncc3)n2-c2ccccc2)cc1	104	107
COc1ccc(OC)c(NC(=O)CSc2cn(CC(=O)N3CCCCCC3)c3ccccc23)c1	116	120
CC(C)c1ccc(S(=O)(=O)c2cnc(SCC(=O)Nc3cccc(C(F)(F)F)c3)nc2N)cc1	110	106
O=C(O)c1ccc(CSc2nc3cccnc3n2Cc2cccc(F)c2)cc1	108	103
Cc1noc2ncnc(N3CCN(c4cccc(C(F)(F)F)c4)CC3)c12	102	106
Cc1cc(C)cc(S(=O)(=O)c2cn(C)c3cc(N4CCCC4)c(F)cc3c2=O)c1	116	112
COc1ccc2c(c1)c1c(c(=O)n(-c3ccccc3C)c(=O)n1C)n2C	102	106
CC1=C(C(=O)Nc2cccc(C(F)(F)F)c2)C2(CCCCC2)OC1=O	107	114
CCOc1ccc(-c2nc(Cn3c(=O)cc(C)c4c(C)nn(-c5ccc(C)cc5)c43)c(C)o2)cc1	112	118
Cc1ccc(NC(=O)c2cccn2-c2nnc(N3CCCCC3)s2)cc1Cl	95	100
CCCCCOc1ccc(NC(=O)Cn2c(-c3nonc3N)nc3ccccc32)cc1	101	109
Cc1cc(Nc2ccc(Br)cc2)nc(C)n1	104	106
COc1cc(NC(=O)C2CCN(C(=O)c3sc4nc[nH]c(=O)c4c3C)CC2)cc(OC)c1OC	114	114
CCOC(=O)c1c(-c2ccc(C)cc2)csc1NC(=O)c1cc(-c2ccc(Cl)cc2)on1	102	110
Cc1ccc(CNC(=O)CN2C(=O)C3(SCC(=O)N3c3ccc(F)cc3)c3ccccc32)cc1 (configuration not stated)	103	108
COc1cccc(OC)c1C(=O)NCCc1sc(-c2cccc(F)c2)nc1C	110	110
Cc1cc(NC(=O)CN2CCC(C)CC2)nc2c1c(=O)oc1ccccc12	117	118
Cc1ccc(NC(=O)C2CCN(S(=O)(=O)c3ccc4c(c3)CCCN4C(=O)C3CCC3)CC2)cc1	109	103
Cc1c(Cl)cccc1NC(=O)CCS(=O)(=O)c1ccc2c(c1)oc(=O)n2C	106	112
CCOc1ccc(N2CC(NC(=O)c3ccc4c(c3)OCO4)CC2=O)cc1 (configuration not stated)	112	105
Cc1ccc(C(=O)c2oc3ccccc3c2NC(=O)c2cc(-c3ccccc3)on2)cc1F	108	113
Cc1c(C(=O)N2CCCC2)oc2c1-c1nn(CC(=O)NCc3cccc(Br)c3)cc1CC2	113	113
Cc1nc2ccn(Cc3ccco3)c(=O)c2cc1C(=O)N1CCN(c2ccccc2F)CC1	99	99
Cc1ccc(S(=O)(=O)NCC(c2ccc(N(C)C)cc2)N2CCOCC2)cc1 (configuration not stated)	104	107
Cc1ccc2c(c1)Cc1c(nc(-c3ccc(Cl)cc3)nc1SCC(=O)N1CCCCC1)O2	104	109
Cc1cc(Nc2cccc(Cl)c2C)n2nc(Cc3ccccc3)nc2n1	107	106
Cc1cccc(CCNC(=O)c2ccc3c(c2)nc2n3CCCCC2)c1	112	118
Cc1ccc(NC(=O)Cn2nc(Cc3ccncc3)c3ccccc3c2=O)c(Cl)c1	109	107
CC(C)(C)c1ccc(-c2nc(SCCCOc3ccccc3)n3[nH]c(=O)cc3n2)cc1	100	104
CC(=O)Nc1ccc(Nc2nc3c(S(=O)(=O)c4cc(C)ccc4C)nnn3c3ccsc23)cc1	109	109
Cc1cc2oc(C(=O)N(Cc3ccc(N(C)C)cc3)Cc3ccco3)c(C)c2cc1Cl	107	107
COc1ccc(/C=C/c2nc(C#N)c(N3CCCCC3)o2)cc1OC	112	108
Cc1cc(S(=O)(=O)Nc2cc3c(cc2NCc2ccccc2)n(C)c(=O)n3C)ccc1F	99	101
Cc1nc2ccc(S(=O)(=O)NC(C(=O)NCc3ccccc3Cl)C(C)C)cc2s1 (configuration not stated)	104	110
COc1ccc(CNC(=O)C2Cc3cc(S(=O)(=O)N4CCCCCC4)ccc3N2C(C)=O)cc1 (configuration not stated)	110	116
CCOc1ccc(Nc2ncnc3c2c(-c2ccccc2)cn3-c2cccc(C)c2)cc1	101	96
CN(c1ccccc1)C(CNS(=O)(=O)c1ccccc1)c1ccccc1 (configuration not stated)	99	99
CCN1CCN(c2ncc3c(n2)CCN(CC(C)C)C3)CC1	102	105
Additional compounds:
SMILES	Polio RdRp inh	Polio RdRp inh intensity
COc1ccc(C(=O)NCC(c2ccc3c(c2)OCO3)N2CCOCC2)cc1 (configuration not stated)	96	100
CCCOc1ccccc1C(=O)N1CCC(c2nc3ccccc3s2)CC1	101	107
Cc1ccc(S(=O)(=O)c2nc(-c3ccccc3F)oc2NCc2ccccc2)cc1	107	111
COc1ccc(N(C(=O)c2ccccc2)S(=O)(=O)c2ccc3c(c2)n(C)c(=O)n3C)cc1	104	108
COc1cc2c(=O)n(CCC(=O)NCC3CCCO3)c(=O)n(CC(=O)Nc3ccc(C)c(C)c3)c2cc1OC (configuration not stated)	102	106
CCc1ccc(NC(=O)CSc2nc3ccccc3nc2Cc2ccccc2OC)cc1	105	107
Cc1cc(C)cc(NC(=O)CSc2nc(-c3ccccc3)c3cc(F)ccc3n2)c1	109	108
CCc1ccccc1NC(=O)Cn1nnc(-c2nc(-c3ccc(C)cc3)no2)c1N	107	103
Cc1ccc(CN(C(=O)c2ccc([N+](=O)[O-])cc2)c2ccccn2)cc1	109	111
COc1cccc(C(=O)c2cn(CC(=O)Nc3ccc4c(c3)OCCO4)c3nc(C)ccc3c2=O)c1	108	113

Entries listed so far that contain an aryl thioether with sulfur outside any ring, in the order listed:
SMILES	Polio RdRp inh	Polio RdRp inh intensity
CSc1nc2sc3c(c2c(=O)n1-c1ccccc1C)CCCC3	104	111
CCCNC(=O)CCSc1nc(-c2ccc3c(c2)OCO3)cc(C(F)(F)F)n1	104	111
O=C(NC1CCCC1)c1ccc(CSc2nc3ccncc3n2Cc2ccccc2F)cc1	106	105
N#Cc1cc2c(=O)n3ccccc3nc2n(-c2nnc(SCc3ccccc3Cl)s2)c1=O	103	128
CCOc1ccc(CNC(=O)c2ccc(CSc3nc4ccncc4n3Cc3ccc(F)cc3)cc2)cc1	107	110
CC(=O)c1ccc(NC(=O)CSc2nnc(-c3ccncc3)n2-c2ccccc2)cc1	104	107
COc1ccc(OC)c(NC(=O)CSc2cn(CC(=O)N3CCCCCC3)c3ccccc23)c1	116	120
CC(C)c1ccc(S(=O)(=O)c2cnc(SCC(=O)Nc3cccc(C(F)(F)F)c3)nc2N)cc1	110	106
O=C(O)c1ccc(CSc2nc3cccnc3n2Cc2cccc(F)c2)cc1	108	103
Cc1ccc2c(c1)Cc1c(nc(-c3ccc(Cl)cc3)nc1SCC(=O)N1CCCCC1)O2	104	109
CC(C)(C)c1ccc(-c2nc(SCCCOc3ccccc3)n3[nH]c(=O)cc3n2)cc1	100	104
CCc1ccc(NC(=O)CSc2nc3ccccc3nc2Cc2ccccc2OC)cc1	105	107
Cc1cc(C)cc(NC(=O)CSc2nc(-c3ccccc3)c3cc(F)ccc3n2)c1	109	108

The list is partial; count on the stated rates, not on these rows.
